VDR inhibitor: vitamin D3 receptor (human) inhibition. P11473. 400,000 tested, 0.93% active. VDR-SRC2-3 peptide fluorescence polarization, 2 h. Potency, µM, for inactives: max response, negative = inhibition, most hits filed as inhibitors; active means well fitted inhibition curve with a large enough effect; inconclusive means small, poorly fitted or top-dose-only effect, or another doubt; inactive means no such curve, though single readings can be large or run the other way; further: series mostly up to about 120 µM
Target sequence (P11473 whole entry, looked up): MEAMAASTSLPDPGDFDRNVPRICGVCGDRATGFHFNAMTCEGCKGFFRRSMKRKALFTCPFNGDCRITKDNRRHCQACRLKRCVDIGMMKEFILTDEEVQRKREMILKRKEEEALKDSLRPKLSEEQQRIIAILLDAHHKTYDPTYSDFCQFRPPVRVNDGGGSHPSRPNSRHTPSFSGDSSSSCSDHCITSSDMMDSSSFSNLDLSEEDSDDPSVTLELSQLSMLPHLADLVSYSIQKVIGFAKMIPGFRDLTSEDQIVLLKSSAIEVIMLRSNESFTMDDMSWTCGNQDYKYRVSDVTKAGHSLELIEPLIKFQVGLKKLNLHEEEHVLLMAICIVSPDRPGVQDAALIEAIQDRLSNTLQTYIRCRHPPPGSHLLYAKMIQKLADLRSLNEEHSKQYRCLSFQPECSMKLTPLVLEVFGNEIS
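Signal is fluorescence polarization, reporting how far test compounds block the interaction of VDR with the SRC2-3 coregulator peptide after a 2 h room-temperature incubation.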
Numbers without * were called inactive; ? = inconclusive; ! = not confirmed by another sample; [ ] = dose if it differs, or a comment. On the % scale 0 is the no-effect control and ±100 the full control effect; potency means the concentration at half of the fitted maximal effect. This is a subset; the hit share may differ from the screen's.

VDR inhibitor	compound
?	CC[C@]12c3[nH]c4cc(-c5ccco5)ccc4c3CCN1C(=O)[C@@H](CC(=O)NCCC1=CCCCC1)C[C@@H]2C(=O)N1CCN(C(=O)C2CC2)CC1
?	C/C(=N\Nc1ccccc1C)c1cccnc1
16%	COc1ccc(C2CC(c3cccs3)=NN2c2nc(C)c(C(C)=O)s2)cc1OC (stereo unspecified)
?	Cc1cc(C)c(S(=O)(=O)/N=C2/C=C(Sc3ncn[nH]3)C(=O)c3ccccc32)cc1C
9%	Cc1ccc(OCc2nnc(SCC(=O)Nc3ncc(C)s3)o2)cc1
20%	O=C(Nc1ccccc1)c1ccc(F)c(S(=O)(=O)N2CCOCC2)c1
-9%	O=C(CCNC(=O)c1ccc(Cl)cc1)Nc1ncccc1O
1%	CCC[C@@H]1CC(C(=O)NC(C2O[C@H](SC)C(OP(=O)(O)O)[C@H](O)[C@H]2O)[C@H](C)Cl)N(C)C1 (stereo partly specified)
4%	CCNS(=O)(=O)c1ccc(CCC(=O)NCc2ccc(C)cc2)cc1
-1%	Cc1cc(C)c(NC(=O)C(=O)NCC(c2cccnc2)N2CCN(c3ccccc3F)CC2)c(C)c1 (stereo unspecified)
-3%	COc1ccc(-c2nn(CCC#N)cc2/C=N/O)cc1OC
-9%	CSCCC(NC(=O)c1ccoc1C)C(=O)O (stereo unspecified)

VDR inhibitor	compound
-16%	COc1ccc(C(=O)Nc2ccccc2N2CCOCC2)cc1[N+](=O)[O-]
-23%	Cc1ccc(CNC(=O)CCc2ccc(S(=O)(=O)NC3CCCCC3)cc2)cc1
5%	NC(=O)c1cc(Cl)ccc1OCC(=O)N1CCCc2ccccc21
10%	Cn1c(N)c(C(=O)COC(=O)CSc2ccc(Cl)cc2)c(=O)n(C)c1=O
0%	O=C(NCCCN1C(=O)c2ccccc2C1=O)OCc1ccccc1
-3%	O=C(CCC1N=C2c3ccccc3N=C(SCc3ccccc3Cl)N2C1=O)NCc1cccs1 (stereo unspecified)
-7%	CCOC(=O)CSc1nnc(NC(=O)c2ccco2)s1
-5%	C=CCn1c(CNc2ccccc2)nnc1SCC(=O)N/N=C/c1ccccc1O
26%	CN(C)C(=O)CSc1nnc(-c2ccc(S(=O)(=O)N3CCCC3)cc2)n1C
-9%	COc1ccc(OC)c(N=Nc2c(O)c3ccccc3[nH]c2=O)c1
?	Cc1ccc(C(=O)CSc2nsc(C)c2C#N)cc1
-2%	COC(=O)CCc1c(C)[nH]c(=S)[nH]c1=O

Next part, starting with the last 6 of the part before.
VDR inhibitor	compound
-7%	CCOC(=O)CSc1nnc(NC(=O)c2ccco2)s1
-5%	C=CCn1c(CNc2ccccc2)nnc1SCC(=O)N/N=C/c1ccccc1O
26%	CN(C)C(=O)CSc1nnc(-c2ccc(S(=O)(=O)N3CCCC3)cc2)n1C
-9%	COc1ccc(OC)c(N=Nc2c(O)c3ccccc3[nH]c2=O)c1
?	Cc1ccc(C(=O)CSc2nsc(C)c2C#N)cc1
-2%	COC(=O)CCc1c(C)[nH]c(=S)[nH]c1=O
-7%	Cc1ncc(S(=O)(=O)c2ccc(Cl)cc2)c(-c2ccccc2)n1
6%	COCCCNC(=O)CC(NS(=O)(=O)c1ccc(Cl)cc1)c1ccc(OC)cc1 (stereo unspecified)
-8%	COCCN(Cc1cc2cccc(C)c2[nH]c1=O)C(=O)c1ccccc1
-11%	CCC1=Nc2cc(C(=O)NCCN3CCOCC3)ccc2Sc2ccc(Br)cc21
-7%	COc1ccc(/C=C/C(=O)O/N=C(\N)c2cccnc2)cc1OC
15%	Cc1ccc(OCc2ccc(C(=O)NCc3cccnc3)cc2)cc1C
51%[activator]	COc1ccc2nc(SCC(=O)Nc3cc(C)on3)c(C#N)cc2c1
5%	CCc1ccc(NC(=O)c2cc3nc(-c4ccc(C)cc4)cc(C(F)(F)F)n3n2)cc1
10%	O=c1ccnc(NCCc2ccccc2)[nH]1
10%	CC(NC(=O)c1cc(Br)ccc1Cl)c1ccccc1 (stereo unspecified)
8%	CSCCC(/C(O)=C(\C#N)c1nc2ccccc2[nH]1)N1C(=O)c2ccccc2C1=O (stereo unspecified)
22µM*	O=C(CCS(=O)(=O)c1nc(-c2cccs2)cc(C(F)(F)F)n1)Nc1ccc(F)c(Cl)c1

VDR inhibitor	compound
-2%	Cc1cc(C)c(NC(=O)CSc2nnc(-c3ccncc3)n2Cc2ccco2)c(Cl)c1
-8%	CCN1CCN(CCc2nc3cc(NC(=O)COc4ccccc4)ccc3n2C)CC1
-5%	O=C(Nc1c(C(=O)N2CCOCC2)cnn1-c1ccccc1)c1ccc(F)cc1
-4%	O=C(c1cc2c(Cl)nc3ccccc3c2s1)N1CCCCC1
32µM*!	CC/C=C\C/C=C\C/C=C\C/C=C\C/C=C\C/C=C\CCC(=O)O
0%	COc1cccc(NC(=O)CN2C(=O)COc3ccc(S(=O)(=O)N4CCC(C)CC4)cc32)c1
-8%	CC(C)C[C@H](NC(=O)C1CC(=O)N(c2ccc3c(c2)OCO3)C1)C(=O)NC1CCCC1 (stereo partly specified)
7%	Nc1[nH]c(=O)[nH]c(=O)c1N=Nc1ccc(C(=O)O)cc1
22%	Cc1c(Br)c([N+](=O)[O-])nn1C(C)C(=O)Nc1c(C)n(C)n(-c2ccccc2)c1=O (stereo unspecified)
-27%	NC(=S)N/N=C1\CC(c2ccc3c(c2)OCCCO3)Oc2ccc(F)cc21 (stereo unspecified)
-13%	O=C(Nc1ccccc1)Nc1ccc(Nc2ccccc2)cc1
3%	CN(C)CCNc1nc2sc3c(c2c(=O)n1-c1ccccc1)CCCCC3

VDR inhibitor	compound
-6%	O=C(NC1CC2CCC(C1)N2Cc1nnnn1Cc1ccco1)NC12CC3CC(CC(C3)C1)C2 (stereo unspecified)
0%	NNC(=O)COc1ncn(-c2ccccc2)n1
3%	Fc1ccc2[nH]c3c(N4CCSCC4)ncnc3c2c1
-21%	CCc1c(Cl)nc(N)nc1Nc1ccccc1C
-1%	COc1ccc(NC(=O)COC(=O)[C@@H]2CCCN2C(=O)c2cccs2)c(OC)c1
12%	O=C(OCCNC(=O)c1cc2ccccc2oc1=O)c1cccnc1
12%	CCCOc1ccc(N2C(=O)CC(N3CCN(S(=O)(=O)c4ccccc4)CC3)C2=O)cc1 (stereo unspecified)
1%	Cn1c(=O)c2c(ncn2CC(COCc2ccccc2)OCc2ccccc2)n(C)c1=O (stereo unspecified)
-12%	O=C(Nc1nnc(-c2ccc(Cl)cc2)o1)c1ccccc1Br
5%	O=C(Cc1cccs1)NCc1cccnc1
9%	CCOC(=O)c1cc(-c2cc(OC)c(OC)c(OC)c2)nc2c1c(=O)[nH]c(=O)n2Cc1ccccc1
-15%	COCCn1c(C)cc(C(=O)CSc2nc3ccccc3s2)c1C

VDR inhibitor	compound
1%	COc1ccc(N2C(=O)C3CCCN3C2c2ccc(C)o2)cc1 (stereo unspecified)
15%	CCOC(=O)C1CCCN(C(=O)c2nn(-c3ccc(C)cc3)c(=O)n(C)c2=O)C1 (stereo unspecified)
-2%	CC1CN(c2nc(-c3ccccc3)nnc2-c2ccccc2)CC(C)O1 (stereo unspecified)
?	CCOc1ccc(C(=O)Nc2ccccc2C(=O)O)cc1
-19%	COCCNC(=O)CS(=O)Cc1nc(-c2ccccc2C)oc1C (stereo unspecified)
-9%	Cc1ccc(Nc2nc(-c3cccnc3)cs2)cc1Cl
15%	NC(=O)N1OCC2COc3ccc4ccccc4c3C21 (stereo unspecified)
1%	COC(=O)C(Cc1ccccc1)NC(=O)CCNC(=O)c1ccc(Br)cc1 (stereo unspecified)
14%	CC[C@]12c3[nH]c4ccc(OC)cc4c3CCN1C(=O)C(CC(=O)NCCCN(C)C)C[C@@H]2C(=O)N1CCN(C(=O)c2ccco2)CC1 (stereo partly specified)
-4%	COc1ccc(NS(=O)(=O)c2ccc(C)c(C(=O)N3CC(C)OC(C)C3)c2)cc1 (stereo unspecified)
-3%	Cc1ccc(N(CCC#N)C(=O)COC(=O)c2ccccc2SCC(=O)N2CCCC2)cc1
-2%	O=C(Cn1cncn1)N1CCN(c2ccc(F)cc2)CC1

VDR inhibitor	compound
-78%	O=C(CCN1CCCCC1)c1ccc2c(c1)OCCO2
-5%	COC(=O)c1ccc(CSc2ccc3nnc(-c4ccccn4)n3n2)o1
3%	O=S(=O)(Nc1nc2n(n1)C(c1ccc(F)cc1)C=C(c1ccc(Cl)cc1)N2)c1ccccc1 (stereo unspecified)
6%	CC(C)Oc1ccc(C(CC(=O)O)c2ccc(F)cc2)cc1 (stereo unspecified)
-23%	O=C1[C@@H]2C(c3cccnc3)=NO[C@@H]2C(=O)N1c1ccc(Br)cc1
9%	CN(C)/C=N/NC(=O)c1ccccc1
-21%	CCCc1ccc(C(=O)Cn2nc(C(=O)O)c3ccccc3c2=O)cc1
5%	CCOc1ccc(/C=N/NC(=O)C(C)N(c2ccc(OC)cc2)S(C)(=O)=O)cc1 (stereo unspecified)
-20%	O=C(CCc1nc2ccccc2c(=O)[nH]1)N1CCN(S(=O)(=O)c2cc(Cl)ccc2Cl)CC1
18%	Cc1cccc(Oc2nc(-c3ccccn3)nc3ccccc23)c1
-9%	CCn1c(NC(=O)c2ccccc2)c(-c2cccs2)c(=O)c2ccccc21
12%	N#Cc1c(SCC(=O)Nc2ccc(Cl)cc2Cl)sc2c(O)cc(=O)[nH]c12

VDR inhibitor	compound
-24%	O=c1c2ccccc2nc(-c2ccccc2)n1/N=C/c1ccc([N+](=O)[O-])cc1
8%	CCC(C(=O)NCCc1ccc(SC)cc1)n1nc(C)c2sc3ccccc3c2c1=O (stereo unspecified)
17%	Cc1c(NC(=O)Nc2ccc(Br)cc2F)sc2nc3n(c(=O)c12)CCC(C)CC3 (stereo unspecified)
-8%	COc1ccc(C(CNC(=O)COc2ccc(F)cc2Cl)N2CCOCC2)cc1 (stereo unspecified)
-5%	O=C(CSc1nnc(-c2ccc(O)cc2)n1Cc1ccccc1)NNC(=O)c1ccc(Br)cc1
?	COc1ccc(CNC(=O)OCCN2CCN(Cc3ccccc3)CCC2=O)cc1
-4%	CCCC(C)NC(=O)c1ccccc1SC (stereo unspecified)
0%	O=c1[nH]c(CN2CCN(C/C=C/c3ccccc3)CC2)nc2cc(Cl)ccc12
-9%	COc1cc(CNC2CCCCCCC2)cc(Br)c1OCC#N
-7%	O=C(CCCN1C(=O)/C(=C\c2ccccc2)SC1=S)Nc1ccccc1O
4%	O=[N+]([O-])c1ccc(OCn2cncn2)cc1
1%	CC(C)(C)c1ccc(C(=O)Nc2ccc(C(=O)N3CCCC3)cc2)cc1

Shown as a hit in VDR inhibitor, of those listed so far:
VDR inhibitor	compound
22µM*	O=C(CCS(=O)(=O)c1nc(-c2cccs2)cc(C(F)(F)F)n1)Nc1ccc(F)c(Cl)c1
32µM*!	CC/C=C\C/C=C\C/C=C\C/C=C\C/C=C\C/C=C\CCC(=O)O

Going on with the list:
VDR inhibitor	compound
?	COc1ccc2nc(NC(=O)CSC3=NCCS3)sc2c1
-10%	COc1ccc(OC)c(NC(=O)C(=O)/C=C(\O)c2cc(OC)ccc2OC)c1
-13%	NC(=O)NC(=O)COC(=O)/C=C/c1cccs1
-9%	CN(C)CC/C=C1/c2cc(F)ccc2Sc2ccc(Cl)cc21
10%	Cc1ccc(C)c2[nH]c(=O)c(CCNC(=O)c3cccs3)cc12
11%	Nc1cc(=O)[nH]c(SCCSc2ccc(F)cc2)n1
4%	O=S(=O)(c1ccccc1)n1nc(-c2ccccc2)nc1NCc1ccco1
1%	COc1ccc(CCn2ccc(O)c(Cc3ccc(Cl)cc3Cl)c2=O)cc1OC
16%	COc1ccc(CC(=O)NNC(=O)c2ccco2)cc1OC
-2%	Cc1cccc(CCNC(=O)c2nc(-c3ccc(Cl)cc3)n3c2CCCCC3)c1
-7%	CCOC(=O)Cc1csc(NS(=O)(=O)c2ccc(Br)cc2)n1
4%	CCCOc1ccc(-c2nonc2NC(=O)c2cc(OC)c(OC)c(OC)c2)cc1OCCC

VDR inhibitor	compound
9%	CC1(C)OC(=O)C(=NNc2ccccc2[N+](=O)[O-])C(=O)O1
5%	CC(=O)N1CCc2cc(CNC(=O)Nc3ccccc3C(F)(F)F)ccc21
6%	O=C(c1ccc(Cl)c(S(=O)(=O)N2CCc3ccccc3C2)c1)N1CCN(c2ccccc2)CC1
8%	O=C(Cc1cccs1)N1CCN(S(=O)(=O)c2ccc(F)c(F)c2)CC1
-8%	Cc1ccc(Cc2nnc(SCC(=O)Nc3ccc(C)cc3C)[nH]c2=O)cc1
4%	CCCCC(=O)OCc1cc(=O)n2nc(C3CCCCC3)sc2n1
20%	O=C(NCc1cccs1)c1cc2c(s1)CS(=O)(=O)C2
4%	CCC(=O)Nc1cccc(NC(=O)c2ccc3c(c2)OCCO3)c1
-20%	COc1cccc(/C=C/C(=O)Nc2ccc3c(c2)OCCO3)c1
-13%	COc1ccc(CNC(=O)C(C)OC(=O)C23CC4CC(CC(O)(C4)C2)C3)cc1 (stereo unspecified)
4%	Cc1cc(OCC(=O)N(Cc2ccco2)C2CCS(=O)(=O)C2)ccc1Cl (stereo unspecified)
0%	CC(=O)Nc1cccc(CNCc2cccc(NC(C)=O)c2)c1

2 records drawn at random from the list so far:
VDR inhibitor	compound
6%	O=C(c1ccc(Cl)c(S(=O)(=O)N2CCc3ccccc3C2)c1)N1CCN(c2ccccc2)CC1
4%	Cc1cc(OCC(=O)N(Cc2ccco2)C2CCS(=O)(=O)C2)ccc1Cl (stereo unspecified)

Compound activity (PubChem)
